GLA inh pH 4.5 = blocks human alpha-galactosidase A at pH 4.5 | 230,000 tested, under 10 active | activity change, negative = inhibition, % at 105 µM | AID 1467 | P06280 | purified enzyme, 4-MU-alpha-Gal fluorescence, pH 4.5; inconclusive = small, poorly fitted or top-dose-only inhibition, or a rising curve; inactive = flat fitted curve, though single readings scatter; no compound was filed as active;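 note: 0% = full activity with enzyme and -100% = basal without enzyme; dose as in the result columns while the protocol names 77 µM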
Rango release inh = inhibitors of RanGTP-induced Rango-importin beta complex dissociation; Biochemical FRET Rango-importin beta, RanGTP-induced dissociation; AID 540253; O95149+P62826; Potency, µM (top dose mostly 46.1 µM), without a hit: top-dose activity change, negative = inhibition; 340,000 tested, 0.071% active; active means falling FRET ratio curve, often poorly fitted, with flat reads before Ran was added; inconclusive means other falling curves, or compound fluorescence or quenching; inactive means flat or rising ratio curve;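 note: potency is the fitted concentration of half-maximal effect; % of control where 0% means no effect; nearly all actives have a fitted effect of over 45% in size; -100% = wells without RanGTP and RCC1; the record marks most hits as doubtful in a second field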
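Recombinant Rango FRET biosensor (EYFP–snurportin 1 IBB–cerulean CFP10) at 0.1 uM premixed with 0.25 uM importin beta in PBS, 1 mM DTT, 0.02% Tween-20, 0.1% BSA. Compound added 5 min; RanGTP-RCC1 (0.6 uM Ran, 2 mM GTP, 0.2 uM RCC1) then triggers release, read at 45 min.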
Rango-impB inh = prevents formation of the Rango-importin beta complex; Potency, µM (doses to about 92.2 µM), without a hit: at the highest dose inhibition of complex formation; Rango CFP/YFP FRET sensor + importin beta, 45 min; 340,000 tested, 0.031% active; Q14974; active = rising FRET ratio curve, often small or poorly fitted; inconclusive = mostly compound fluorescence or quenching in the first reads; inactive = flat curves in all reads;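 note: potency is the fitted concentration of half-maximal effect; 0% = DMSO wells and 100% = buffer wells lacking importin beta; nearly all actives have a fitted effect of over 15% in size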
Target sequence (Q14974 whole entry, looked up): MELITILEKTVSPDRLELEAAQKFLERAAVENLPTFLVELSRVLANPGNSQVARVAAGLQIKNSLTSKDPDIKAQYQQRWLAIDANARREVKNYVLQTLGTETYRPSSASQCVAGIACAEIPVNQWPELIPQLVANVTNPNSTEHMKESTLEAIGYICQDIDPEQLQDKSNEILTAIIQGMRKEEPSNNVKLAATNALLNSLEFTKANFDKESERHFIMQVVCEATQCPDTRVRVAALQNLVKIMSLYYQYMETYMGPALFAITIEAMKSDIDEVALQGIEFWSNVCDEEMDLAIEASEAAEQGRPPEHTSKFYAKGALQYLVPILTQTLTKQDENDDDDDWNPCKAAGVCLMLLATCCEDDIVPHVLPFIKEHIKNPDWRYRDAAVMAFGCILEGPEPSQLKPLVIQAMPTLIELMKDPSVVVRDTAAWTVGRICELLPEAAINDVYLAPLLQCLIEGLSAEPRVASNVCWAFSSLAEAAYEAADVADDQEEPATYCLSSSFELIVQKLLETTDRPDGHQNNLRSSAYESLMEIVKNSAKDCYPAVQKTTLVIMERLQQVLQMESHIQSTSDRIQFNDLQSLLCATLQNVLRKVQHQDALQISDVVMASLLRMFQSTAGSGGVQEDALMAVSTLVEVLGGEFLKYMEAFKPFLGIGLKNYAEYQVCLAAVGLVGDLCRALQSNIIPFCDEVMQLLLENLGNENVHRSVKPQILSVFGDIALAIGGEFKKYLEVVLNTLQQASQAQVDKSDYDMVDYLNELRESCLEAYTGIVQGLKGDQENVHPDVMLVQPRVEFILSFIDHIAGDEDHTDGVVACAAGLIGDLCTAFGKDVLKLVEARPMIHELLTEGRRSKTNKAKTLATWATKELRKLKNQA
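FRET biosensor (snurportin 1 IBB flanked by EYFP and cerulean), 50 nM, with compound 5 min, then 0.125 microM importin beta in PBS, 1 mM DTT, 0.02% Tween-20, 0.1% BSA. CFP/YFP ratio read after 45 min at room temperature; pre-read flags interference.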
miR-21 FLuc = miR-21 reporter, rising signal; HeLa miR-21 FLuc reporter, luciferase, 48 h; 340,000 tested, under 10 active; Potency, µM (doses to about 38.3 µM), for inactives: top-dose reporter change, positive = more light; active = well fitted rising curve with a large enough effect; inconclusive = small, poorly fitted or top-dose-only effect; inactive = no such curve, though single readings can be large or run the other way;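 note: % of control where 0% means no effect; miR-21 action dims this reporter so a rising signal means less miR-21 action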
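HeLa miR-21-FLuc reporter line, endogenous miR-21; 2000 cells/well in DMEM/10% FBS; compound titration up to ~40uM final, 48 h, 37 degree Celsius; luciferase detection reagent, 15 min lysis, CCD luminescence.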
* hit, by the source's call; ? = inconclusive; . = no result given; & = joins results of further samples.

(1) Cc1noc(C)c1COc1ccc(CC(=O)NCCc2ccccn2)cc1
(2) CC(=O)N(C(C)=O)S(=O)(=O)c1ccc(N=NN2CCOCC2)cc1
(3) COc1ccc(/C=N/NC(=O)CSCC(=O)Nc2ccccc2)cc1
(4) CCS(=O)(=O)c1ccc(-c2cccc(NC(=O)COc3ccccc3)c2)nn1
(5) CC1CCC/C(=N\NC(=S)Nc2ccccc2)C1 (stereo not drawn)
(6) COc1ccc(/C=C2\Oc3ccccc3C2=O)cc1
assay / compound,1,2,3,4,5,6
GLA inh pH 4.5,.,-1.4,0.1,.,-0.8,.
Rango release inh,-10.4%,5.1%,-6.6%,-3.3%,15.1%,4.6%
Rango-impB inh,0.2%,5.0%,-2.8%,4.5%,-3.7%,0.4%
miR-21 FLuc,-0.9%,-10.8%,-17.6%,-0.1%,-54.2%,.

(7) COc1cccc(C2CC(c3ccc(NS(C)(=O)=O)cc3)=NN2C(=O)c2ccccc2)c1OC (stereo not drawn)
(8) COc1ccc2nc(SCC(=O)NCc3ccc(OC)c(OC)c3)[nH]c2c1
(9) O=C(Nc1cccs1)Nc1c(F)c(F)c(F)c(F)c1F
(10) CCn1nnnc1SCC(=O)NCc1ccc2c(c1)OCO2
(11) CC(=O)n1cc([C@@H]2C=C(C(=O)Nc3ccccc3)O[C@H](OCCCCO)C2)c2ccccc21
(12) Cc1cc(C)nc(Nc2ccccc2Br)n1
assay / compound,7,8,9,10,11,12
GLA inh pH 4.5,-10.2,.,-11.3,-4.5,-7.2,1.2
Rango release inh,-3.5%,-14.9%,0.1%,-2.2%,-4.1%,-7.8%
Rango-impB inh,-0.7%,0.1%,-3.8%,-0.1%,?,0.3%
miR-21 FLuc,15.0%,-6.1%,4.1%,-6.5%,0.5%,-7.9%

Some of these compounds in order of their number in miR-21 FLuc, high to low.
| # | smiles | miR-21 FLuc |
| --- | --- | --- |
| 9 | O=C(Nc1cccs1)Nc1c(F)c(F)c(F)c(F)c1F | 4.1% |
| 8 | COc1ccc2nc(SCC(=O)NCc3ccc(OC)c(OC)c3)[nH]c2c1 | -6.1% |
| 10 | CCn1nnnc1SCC(=O)NCc1ccc2c(c1)OCO2 | -6.5% |
| 12 | Cc1cc(C)nc(Nc2ccccc2Br)n1 | -7.9% |

Going on with the list.
(13) COc1ccc(CNC(=O)COC(=O)c2ccccc2C(=O)c2ccccc2)cc1
(14) COc1ccccc1CNC(=O)COC(=O)[C@H](Cc1c[nH]c2ccccc12)NC(=O)c1cccs1
(15) COC(=O)Cn1ccc(N(C)C)c(C#N)c1=O
(16) CC(C)c1nnc(NC(=O)CSc2nnc(NC(=O)c3c(F)cccc3F)s2)s1
(17) COC(=O)c1ccc(NC(=O)COc2cccc(-n3cnnn3)c2)cc1
(18) Cc1cccc(-c2nc(CS(=O)CC(=O)NCc3ccco3)c(C)o2)c1 (stereo not drawn)
assay / compound,13,14,15,16,17,18
GLA inh pH 4.5,-24.1,4.1,-8.0,3.4,.,.
Rango release inh,-2.8%,21.9%,13.7%,0.4%,5.0%,-8.5%
Rango-impB inh,-0.3%,4.0%,0.9%,0.0%,-2.7%,-0.8%
miR-21 FLuc,5.3%,-5.5%,0.9%,-17.8%,3.8%,-3.0%

Next section, overlapping the part above by 2 compounds.
(17) COC(=O)c1ccc(NC(=O)COc2cccc(-n3cnnn3)c2)cc1
(18) Cc1cccc(-c2nc(CS(=O)CC(=O)NCc3ccco3)c(C)o2)c1 (stereo not drawn)
(19) CCOc1cc(C(=O)N(C)Cc2cc3ccccc3[nH]c2=O)cc(OCC)c1OCC
(20) Cc1cc(C)n(-c2nc(SCC(=O)O)c3c4c(sc3n2)CCCC4)n1
(21) O=C(NCC(c1ccco1)N1CCCC1)c1cccc(NS(=O)(=O)c2ccc(Br)cc2)c1 (stereo not drawn)
(22) CCCc1[nH]nc2c1C(c1cc(OC)cc(OC)c1)C(C#N)=C(N)O2 (stereo not drawn)
(23) O=C(NCc1ccccc1)C(=O)NCC1OCCN1C(=O)c1ccc(Cl)cc1 (stereo not drawn)
(24) CN(Cc1cn(C)nc1-c1ccc(Oc2ccccc2)cc1)C1CCOC1 (stereo not drawn)
assay / compound,17,18,19,20,21,22,23,24
GLA inh pH 4.5,.,.,5.1,-4.4,.,-4.5,-9.2,-10.8
Rango release inh,5.0%,-8.5%,27.6%,.,?,0.5%,1.5%,3.2%
Rango-impB inh,-2.7%,-0.8%,2.4%,.,?,0.3%,2.2%,-3.8%
miR-21 FLuc,3.8%,-3.0%,-1.1%,-1.1%,.,-8.5%,-1.2%,2.6%

(25) Cc1ccc(CN2CCN(Cc3ccco3)CC2)cc1
(26) CC(C)CN1CCC(Oc2cccc(C(=O)NCCc3ccccc3)c2)CC1
(27) CCn1c(CN2CCN(Cc3ccc(C)cc3)C(CCO)C2)nc2ccccc21 (stereo not drawn)
(28) Cc1ccc2c(C)nc(N/C(N)=N/S(=O)(=O)c3ccccc3)nc2c1
(29) COc1cc2c(cc1OC)CN(C(=O)c1ccc(OC)c(S(=O)(=O)N3CCCC3)c1)CC2
(30) CC(C)OC(=O)CSc1nnc(-c2cnccn2)n1Cc1ccco1
assay / compound,25,26,27,28,29,30
GLA inh pH 4.5,.,.,-4.4,.,.,1.2
Rango release inh,2.1%,-7.4%,-0.1%,-6.9%,-10.9%,10.4%
Rango-impB inh,0.8%,-2.8%,2.1%,-2.5%,-0.9%,-4.6%
miR-21 FLuc,4.6%,-31.1%,1.1%,-16.2%,.,-5.0%

Looked up above:
compound 30 | miR-21 FLuc = -5.0%
compound 27 | miR-21 FLuc = 1.1%
compound 28 | Rango release inh = -6.9%
compound 26 | Rango release inh = -7.4%
compound 25 | Rango release inh = 2.1%

Further compounds:
(31) O=C1CCc2cc(S(=O)(=O)N3CCC(C(=O)NC4CCCC4)CC3)ccc2N1
(32) COc1ccc(CN2CCC(=O)N([C@H](CO)CC(C)C)CC2)cc1
(33) COc1ccc(CCN2CC(C(=O)Nc3cccc(C(C)=O)c3)CC2=O)cc1OC (stereo not drawn)
(34) NC(=O)C1(Nc2ccccc2)CCCC1
(35) O=C(Nc1ccc(C(=O)N2CCCCC2)cc1)c1ccccc1Br
(36) Cc1ccc(SCC(=O)O/N=C(\N)c2ccc([N+](=O)[O-])cc2)cc1
assay / compound,31,32,33,34,35,36
GLA inh pH 4.5,1.8,.,2.8,.,.,-2.0
Rango release inh,15.0%,0.3%,1.5%,0.2%,-4.1%,-5.2%
Rango-impB inh,2.8%,-0.4%,4.4%,-1.1%,-0.1%,-1.1%
miR-21 FLuc,-4.1%,-0.5%,-1.1%,.,.,-5.4%

Next part, starting with the last 2 of the part before.
(35) O=C(Nc1ccc(C(=O)N2CCCCC2)cc1)c1ccccc1Br
(36) Cc1ccc(SCC(=O)O/N=C(\N)c2ccc([N+](=O)[O-])cc2)cc1
(37) COC(=O)CNC(c1ccccc1)c1cc(Br)ccc1NC(=O)CCN1CCOCC1 (stereo not drawn)
(38) CC(=O)Nc1ccc2c(c1)OCCO2
(39) CC(C)(C)c1[nH]nc2c1C(c1ccsc1)C(C#N)=C(N)O2 (stereo not drawn)
(40) COc1cccc(NC(=S)N/N=C2\CC(C)(C)Oc3ccc(O)cc32)c1
(41) CC(C)Oc1ccc(C(=O)NNC(=O)c2ccccc2C(=O)O)cc1
(42) Cc1ccc([N+](=O)[O-])cc1S(=O)(=O)Nc1cccc(S(=O)(=O)Nc2ccccc2C(=O)O)c1
assay / compound,35,36,37,38,39,40,41,42
GLA inh pH 4.5,.,-2.0,12.5,5.3,2.9,-5.2,-10.6,.
Rango release inh,-4.1%,-5.2%,3.6%,-3.4%,-10.0%,15.1%,7.5%,0.8%
Rango-impB inh,-0.1%,-1.1%,-1.9%,3.4%,3.1%,0.6%,?,-3.0%
miR-21 FLuc,.,-5.4%,-3.7%,0.3%,-3.1%,16.4%,-13.3%,.

(43) CC(C)NC[C@H](O)COc1cccc2ccccc12
(44) CCOc1cccc2sc(=NC(=O)CCS(=O)(=O)c3ccc(F)cc3)n(C)c12
(45) Cc1ccc(CNC(=O)c2ccc(CS(=O)Cc3cccc(Cl)c3)o2)cc1 (stereo not drawn)
(46) COc1ccc(NC(=O)NC2CCCCCCC2)cc1OC
assay / compound,43,44,45,46
GLA inh pH 4.5,-2.4,.,.,.
Rango release inh,11.2%,8.1%,-11.4%,30.5%
Rango-impB inh,0.2%,?,-2.3%,-0.2%
miR-21 FLuc,.,.,2.0%&15.6%,-51.4%

From PubChem BioAssay

A portion of the library; the hit share may differ from the screen's.
